RecA intein inh – inhibitors of M. tuberculosis RecA intein splicing. P9WHJ3. cell-free RecA intein splicing, fluorescence. inhibition, %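 (about 9 µM by stock and volumes)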. 0.75% of 290,000 active; in the data active = inhibition above about 30%; inconclusive = no clear call, values can overlap the other calls;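 note: 0% = vehicle wells and 100% = reference inhibitor control wells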
Target sequence (P9WHJ3 whole entry, looked up): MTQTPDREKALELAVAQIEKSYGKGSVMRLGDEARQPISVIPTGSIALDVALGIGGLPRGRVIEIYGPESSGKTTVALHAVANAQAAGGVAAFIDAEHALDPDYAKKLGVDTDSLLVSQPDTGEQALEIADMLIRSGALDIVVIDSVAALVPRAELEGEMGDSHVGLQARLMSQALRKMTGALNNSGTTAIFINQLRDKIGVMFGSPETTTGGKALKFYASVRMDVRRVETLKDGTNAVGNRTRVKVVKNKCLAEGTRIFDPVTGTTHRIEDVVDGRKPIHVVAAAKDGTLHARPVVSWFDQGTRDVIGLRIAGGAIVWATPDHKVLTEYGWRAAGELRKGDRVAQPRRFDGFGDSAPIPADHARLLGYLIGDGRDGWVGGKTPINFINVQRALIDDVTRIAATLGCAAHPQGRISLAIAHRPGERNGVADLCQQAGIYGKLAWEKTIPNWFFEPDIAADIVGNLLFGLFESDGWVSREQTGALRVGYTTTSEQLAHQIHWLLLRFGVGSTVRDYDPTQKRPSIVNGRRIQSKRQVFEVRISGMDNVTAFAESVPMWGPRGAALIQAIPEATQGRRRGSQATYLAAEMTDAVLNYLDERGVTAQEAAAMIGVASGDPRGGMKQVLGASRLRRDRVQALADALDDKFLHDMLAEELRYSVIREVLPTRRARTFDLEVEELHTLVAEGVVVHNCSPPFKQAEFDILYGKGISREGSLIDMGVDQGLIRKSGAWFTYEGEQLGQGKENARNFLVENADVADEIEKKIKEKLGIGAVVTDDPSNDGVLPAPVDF
Mtb betalactam – beta-lactam sensitization of Mtb H37Rv. inhibition, % at 25 µM. 0.27% of 330,000 active. M. tuberculosis H37Rv growth with meropenem, percent inhibition; hits of this screen are not shown here;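 active = about 74% or more and at least 40 points above the plate without the antibiotic, then above 30% in a dose series; inconclusive = first-round hits that could not be retested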;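 note: growth measured after seven days incubation then overnight dye step; 0% = bacteria only wells and 100% = bacteria with antibiotic; twin plates without the antibiotic show which effects depend on it; some results filed as inactive read as strong as hits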
Mtb growth – M. tuberculosis H37Rv growth inhibitors, H37Rv strain (AID 1626); one-dose inhibition, % at 10 µM; IC50 in µM for titrated hits; 0.95% of 220,000 active; M. tuberculosis H37Rv growth inhibition; higher % means a stronger effect;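 active = confirmed in a dose series; inconclusive = inhibition above 80% but not taken into the dose series; inactive = below 80% or under 30% at every dose of the series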;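 note: bacteria incubated seven days before Alamar blue readout; 0% = bacteria only wells and 100% = bacteria with antibiotic wells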
YopH PTP inh – blocks Yersinia enterocolitica YopH tyrosine phosphatase | fluorescence Ex485/Em525 | inhibition, %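 (about 10 µM by stock and volumes)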 | 0.16% of 140,000 active | AID 898;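 active = inhibition of 50% or more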;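 note: controls were vehicle for no effect and minimum signal wells for full effect; inactives centre near -20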
Arbovirus inh – blocks arbovirus infection | AID 1251 | inhibition, % at 10 µM | arbovirus infection cell-based antiviral screen | 0.37% of 200,000 active;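 active = inhibition from about 30%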;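 note: bluetongue infection of BSR cells; cell survival read as ATP light after 72 h; 0% = infected wells without compound and 100% = uninfected wells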
Arbovirus inh repeat – recorded beside Arbovirus inh, whose call it bears; inhibition, %; measured here: 10K subset replicate screen; many hits read low in the repeat;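 first of two repeat runs on a subset; 0% = infected and 100% = uninfected wells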
* hit, by the source's call; u = inconclusive; x = no result given. Not all compounds are listed; count on the stated rates, not on these rows.

The opening 6 records, to show the layout:
SMILES | RecA intein inh | Mtb betalactam | Mtb growth | YopH PTP inh | Arbovirus inh | others
O=C(Nc1c(Cl)cc(Cl)cc1C(=O)NCCN1CCOCC1)c1cccc([N+](=O)[O-])c1 | -3.6 | 1 | 1% | x | 4
Cc1ccc(N(C)S(=O)(=O)c2cccc(C(=O)Nc3nnc(C4CC4)s3)c2)cc1 | 4.2 | 0 | 3% | x | 9
COc1cccc(N2CCN(C(=O)c3oc4ccccc4c3NC(=O)Cc3ccc(OC)c(OC)c3)CC2)c1 | 0.5 | 6 | x | x | x
O=C(CN1CCOCC1)N/N=C/c1ccc(C(=O)O)cc1 | -0.1 | 1 | 0% | x | -1
COc1ccccc1/C=N/NC(=O)CC(=O)NCc1cccnc1 | 1.3 | 5 | 1% | -47 | -4
CC(=O)Nc1cccc(C(=O)NC2CCCc3c2cnn3-c2ccccc2F)c1 (centres undefined) | -0.1 | 3 | x | x | x

This part in full, from the start:
SMILES | RecA intein inh | Mtb betalactam | Mtb growth | YopH PTP inh | Arbovirus inh | others
O=C(Nc1c(Cl)cc(Cl)cc1C(=O)NCCN1CCOCC1)c1cccc([N+](=O)[O-])c1 | -3.6 | 1 | 1% | x | 4
Cc1ccc(N(C)S(=O)(=O)c2cccc(C(=O)Nc3nnc(C4CC4)s3)c2)cc1 | 4.2 | 0 | 3% | x | 9
COc1cccc(N2CCN(C(=O)c3oc4ccccc4c3NC(=O)Cc3ccc(OC)c(OC)c3)CC2)c1 | 0.5 | 6 | x | x | x
O=C(CN1CCOCC1)N/N=C/c1ccc(C(=O)O)cc1 | -0.1 | 1 | 0% | x | -1
COc1ccccc1/C=N/NC(=O)CC(=O)NCc1cccnc1 | 1.3 | 5 | 1% | -47 | -4
CC(=O)Nc1cccc(C(=O)NC2CCCc3c2cnn3-c2ccccc2F)c1 (centres undefined) | -0.1 | 3 | x | x | x
c1cncc(CNC2CCCC2)c1 | -0.4 | -7 | 1% | x | 1
CCNC(=S)N/N=C/c1ccccc1[N+](=O)[O-] | -4.0 | 4 | -2% | x | 0
CN(C)C(=O)Oc1ccc(Br)c2ccccc12 | 3.4 | 5 | 7% | x | -4
CCOc1ccc(NC(=O)c2ccc(NC(=S)NC3CCCCC3)cc2)cc1 | 0.3 | 13 | 13% | x | -16

Ordered by molar mass (lowest first): three of the compounds above
SMILES | RecA intein inh | Mtb betalactam | Mtb growth | YopH PTP inh | Arbovirus inh | others
CCNC(=S)N/N=C/c1ccccc1[N+](=O)[O-] | -4.0 | 4 | -2% | x | 0
CCOc1ccc(NC(=O)c2ccc(NC(=S)NC3CCCCC3)cc2)cc1 | 0.3 | 13 | 13% | x | -16
COc1cccc(N2CCN(C(=O)c3oc4ccccc4c3NC(=O)Cc3ccc(OC)c(OC)c3)CC2)c1 | 0.5 | 6 | x | x | x

Going on with the list:
SMILES | RecA intein inh | Mtb betalactam | Mtb growth | YopH PTP inh | Arbovirus inh | others
COc1ccc(N2CCN(C(=O)CS(=O)Cc3nc(-c4ccc(OC)c(OC)c4)oc3C)CC2)cc1 (centres undefined) | -4.7 | 4 | x | x | x
O=C(NCc1ccco1)c1nnc(Cc2ccc(Cl)cc2)o1 | 1.2 | 8 | -2% | -49 | 9
Cc1cc(N2CCC(C)CC2)nc2ccc(N3C(=O)CCC3=O)cc12 | 2.9 | -12 | -8% | -42 | 8
CCn1cc(C(=O)OCC(=O)Nc2cccc(Cl)c2Cl)c(=O)c2ccc(C)nc21 | -0.7 | 0 | -12% | x | 0
COc1cccc(/C=N/NC(N)=S)c1OCc1cccc(Cl)c1 | 21 | 1 | 7% | -30 | 1
CCCCNC(=O)c1c(N)n(Cc2ccc3c(c2)OCO3)c2nc3ccccc3nc12 | 68* | 11 | 0% | -13 | -9
CCOC(=O)N1CCN(c2c(NCCN(C)Cc3ccccc3)c(=O)c2=O)CC1 | x | -5 | 14% | -33 | -1
CC(C)(C)OC(=O)c1c(N)n(Cc2ccco2)c2nc3ccccc3nc12 | -10 | 2 | 11% | -6 | -16
COC(=O)c1cccc(NC(=O)CC2C(=O)NCCN2C(=O)c2ccc(F)cc2F)c1 (centres undefined) | x | -3 | -3% | x | x
CN(C=O)CP(=O)(O)CN(C)C=O | 0.2 | 0 | -12% | -2 | 2
CCOc1ccc(OCCC(=O)N2CCN(S(=O)(=O)c3ccc(F)cc3)CC2)cc1 | 1.8 | -3 | x | x | x
COc1cc(CNCCSc2nnnn2C)cc(Br)c1OCc1ccccc1F | -1.5 | -17 | 13% | -21 | 4
O=C(NCCCc1ccccc1)N1CCOCC1 | -3.1 | -2 | -26% | x | -1
CCOc1ccc(C2NCCc3cc(OC)c(OC)cc32)cc1OC (centres undefined) | 4.6 | 0 | x | x | x
Cc1cnc(C)c(N2CCN(Cc3nc(-c4ccccc4)no3)CC2)n1 | 1.0 | 0 | -14% | x | 7
O=C(NCCc1ccccn1)C(F)(F)C(F)(F)C(F)(F)C(F)(F)C(F)(F)C(F)(F)C(F)(F)C(F)F | -3.1 | u | 4% | -3 | 9
Cc1cc(NS(=O)(=O)c2ccc(Br)s2)no1 | 1.2 | 3 | -8% | -8 | x
COc1ccccc1OCC(=O)Nc1ccccc1C(=O)NC1CC1 | 3.7 | -7 | x | x | x
CS(=O)(=O)N1Cc2ccccc2CC1C(=O)O (centres undefined) | 1.1 | -5 | 1% | x | -15
Cn1c(=O)c2c(nc(CN3CCN(c4ccccc4)CC3)n2Cc2c(F)cccc2Cl)n(C)c1=O | 1.1 | -3 | 0% | -12 | 9
CCn1c(O)c(N=NC2=NC(=O)CS2)c2cc(C)ccc21 | 3.4 | 85 | 7% | -34 | 6
O=C(NNC(=O)c1ccccc1F)c1ccco1 | -0.7 | -7 | x | x | x
O=C(CN1N=C(c2ccc(Cl)cc2)CCC1=O)NCCN1CCc2ccccc2C1 | 0.8 | 11 | 3% | -13 | -15
Cc1cccc(NC(=S)NC2CC3CCCC(C2)N3Cc2ccccc2)c1C (centres undefined) | 1.5 | -4 | 3% | x | 17
CC(=O)Nc1cccc(/C(C)=N/NC(=O)c2ccccc2Cl)c1 | -1.3 | -1 | -9% | -37 | -5
Cn1c(SCC(=O)N/N=C/c2ccc([N+](=O)[O-])s2)nnc1-c1ccccc1 | 2.4 | 100 | u | 26 | -44
Cc1noc(C)c1C(=O)NCc1ccccc1 | -2.0 | 4 | 0% | 4 | -3
Cc1cccc(-n2ccnc2CN2CCC(CO)(Cc3ccccc3)CC2)c1 | 3.2 | 0 | 3% | x | x
O=C(c1ccccc1Cl)N1CCN(Cc2ccc3c(c2)OCO3)CC1 | -5.3 | -2 | x | x | x
CCn1c2ccccc2c2n[nH]c(=S)nc21 | 1.3 | -2 | x | x | x
O=C(OCCN1CCCCC1)c1cc2ccccc2o1 | -1.4 | 0 | -7% | 2 | -4
COc1cccc(C(=O)N2CCN(C3CCC(c4ccccc4)CC3)CC2)c1OC (centres undefined) | -1.8 | -2 | -7% | -21 | 11
COc1ccccc1N(CC(N)=O)S(=O)(=O)c1ccc(C)cc1 | 0.3 | 6 | -5% | -23 | -5 | Arbovirus inh repeat=5
CCn1c(O)c(/C=C2\C=NN=C2c2ccccc2)sc1=S | 0.3 | 79 | -12% | x | x
COc1ccc(/C=C2\CCC/C(=C\C=N\N(C)C)C2=O)cc1 | x | 83 | 11% | x | 0
COc1cccc2c1C(=O)c1c(O)c3c(c(O)c1C2=O)C[C@](O)(C(C)=O)C[C@H]3O[C@@H]1C[C@@H](N)[C@@H](O)[C@@H](C)O1 | -1.9 | 99 | x | x | x
C[C@@H](C(=O)NCc1ccccc1)[C@@H]1C[C@@]1(C)[C@@H](NC(=O)OCc1ccccc1)c1ccccc1 | 5.5 | 0 | -1% | -26 | -14
CC(=O)Nc1ccc(C(=O)N(C)C(C(=O)Nc2ccc(C)cc2)c2ccccn2)cc1 (centres undefined) | -3.0 | 4 | 1% | -14 | -9
CCOCCCn1c(SCC(=O)Nc2cc(OC)ccc2OC)nc2ccccc2c1=O | 1.5 | 7 | x | x | x
COc1ccc(C(=O)Nc2ccc(C(=O)N3CCOCC3)cc2)cc1OC | -2.2 | -1 | x | x | x
COc1ccc(CC(=O)N2CC3(C)CC2CC(C)(C)C3)cc1 (centres undefined) | -0.4 | -2 | 6% | -8 | -5
CCn1cc(C(=O)NCC(C)C)c(=O)c2cc(F)c(N3CCN(C(=O)c4ccco4)CC3)cc21 | -0.5 | 12 | x | x | x
COc1ccc(Cn2nnnc2C(c2ccccc2Cl)N2CCN(C3CCCC3)CC2)cc1 (centres undefined) | -0.6 | x | 7% | -41 | -16
O=C(Nc1ccc(N2CCN(C(=O)c3ccco3)CC2)cc1)c1cccs1 | -2.5 | -2 | 2% | -25 | -8
COc1ccc(C(C(=O)Nc2ccc(C(C)C)cc2)N(Cc2ccco2)C(=O)CC2NC(=O)NC2=O)cc1 (centres undefined) | 0.5 | 1 | 10% | x | -5
Cc1c(Cc2ccccc2)c(=O)oc2cc(O)ccc12 | -18 | -4 | -7% | x | x
COc1ccc(C(Nc2ccccc2)P(=O)(Oc2ccccc2)Oc2ccccc2)cc1 (centres undefined) | -1.8 | 9 | 1% | -33 | 4
COc1ccc(C)cc1S(=O)(=O)Nc1ccc(-n2c(C)nc3ccccc3c2=O)cc1 | -0.3 | 3 | x | x | x
Cc1cc(OCC(=O)Nc2ccc(CN3CCOCC3)cc2)c2c(C)c(C)c(=O)oc2c1 | -2.1 | 0 | x | x | x
Cc1cc(C(=O)N/N=C/c2cccc(OC(=O)c3cccc(Br)c3)c2)n[nH]1 | -1.5 | 5 | x | x | x

Other results follow:
SMILES | RecA intein inh | Mtb betalactam | Mtb growth | YopH PTP inh | Arbovirus inh | others
CCCCN(CC)S(=O)(=O)N1CCC(C(=O)NCCCN2CCOCC2)CC1 | -1.5 | -5 | x | 5 | 2
Cc1cc(OCC(=O)Nc2ccncc2)c(C)cc1Br | 4.1 | 2 | -5% | -24 | 14
CCCC(=O)NCc1ccccc1Cl | 0.3 | 5 | 7% | x | 13
CCCOc1ccc(/C(O)=C2/C(=O)C(=O)N(c3cc(C)on3)C2c2ccc(C(=O)OC)cc2)cc1 (centres undefined) | 0.9 | -15 | -16% | -28 | 0
COc1ccccc1CC(=O)Nc1ccc([N+](=O)[O-])cc1O | x | 0 | 12% | x | 4
CC(=O)N1CCN(c2nc(CC(C)C)c3c(c2C#N)CCC3)CC1 | 1.9 | 40 | x | -32 | -11
CCCn1c(=O)c(C(=O)NCc2ccccc2Cl)c(O)c2ccccc21 | -1.9 | 1 | x | x | x
COCC(=O)NCCc1ccc(S(N)(=O)=O)cc1 | -0.2 | 0 | -5% | -23 | -3
O=S(=O)(Cc1cc(NCc2ccccc2)nc(-c2ccncc2)n1)c1ccccc1 | -4.1 | 8 | 3% | x | -1
COc1ccc(S(=O)(=O)N2CCN(C(=O)c3c(C)nn(-c4ccccc4)c3Cl)CC2)cc1 | x | -10 | 2% | -21 | 20
Cc1ccc(NC(=O)CSc2nc(=O)n(CCCN3CCOCC3)c3c2CCCC3)cc1F | 3.1 | 1 | x | x | x
CC1CCCCN1C(=O)CSc1nnc(Cc2ccccc2)n1C (centres undefined) | 2.3 | -7 | 0% | -24 | 4
COc1cc(CCC(=O)Nc2cnc3ccccc3c2)cc(OC)c1OC | -5.7 | 10 | x | x | x
CN1C(=O)C(CC(=O)NC2CCCCC2)N(C)C1=O (centres undefined) | 1.8 | -24 | 2% | x | 1
COC(=O)c1sc2nc(C)c([N+](=O)[O-])c(C)c2c1N | x | 4 | 2% | -36 | 6
CCOC(=O)N1CCC(NC(=O)Cn2cc3c(n2)CCCCC3)CC1 | -0.1 | -1 | -13% | -16 | 6 | Arbovirus inh repeat=3
CC(C)(C)C(=O)Nc1nnc(-c2ccncc2)o1 | -0.8 | 5 | 0% | 3 | -7
CC1(C)C2CC=C(/C=N/NC(=O)C3CC3)C1C2 (centres undefined) | -2.0 | 5 | 5% | x | 8
CCCCCCC1CC(/C(C)=N\NC(N)=O)OC1=O (centres undefined) | 0.5 | 1 | -2% | -30 | 8
Cc1ccc(S(=O)(=O)Oc2ccccc2N2C(=O)C3CC=CCC3C2=O)cc1 (centres undefined) | -2.8 | 5 | -4% | -12 | -2
CC(C)c1ccc(N2C(=O)CSC23C(=O)N2CCCc4cccc3c42)cc1 (centres undefined) | 3.7 | 0 | -3% | -3 | 2
Cc1ccc(S(=O)(=O)n2nccc2-c2c(-c3ccccc3)noc2C)cc1 | 20 | 24 | -7% | x | x
Cc1ccc(/C=N/NC(=O)c2nnn(-c3nonc3N)c2-c2ccc3c(c2)OCO3)s1 | 0.4 | -3 | x | x | x
CCN(c1ccccc1)S(=O)(=O)c1cccc(C(=O)NCc2cccnc2)c1 | 0.7 | -8 | x | x | x
